# VDR inh – blocks the human vitamin D receptor; Potency, µM, without a hit: max response, negative = inhibition, actives largely listed as inhibitors; 400,000 compounds, 0.93% hits; P11473; AID 504847; VDR-SRC2-3 peptide fluorescence polarization, 2 h; active means well fitted inhibition curve with a large enough effect; inconclusive means small, poorly fitted or top-dose-only effect, or another doubt; inactive means no such curve, though single readings can be large or run the other way; further: series mostly up to about 120 µM
# Target sequence (P11473 whole entry, looked up): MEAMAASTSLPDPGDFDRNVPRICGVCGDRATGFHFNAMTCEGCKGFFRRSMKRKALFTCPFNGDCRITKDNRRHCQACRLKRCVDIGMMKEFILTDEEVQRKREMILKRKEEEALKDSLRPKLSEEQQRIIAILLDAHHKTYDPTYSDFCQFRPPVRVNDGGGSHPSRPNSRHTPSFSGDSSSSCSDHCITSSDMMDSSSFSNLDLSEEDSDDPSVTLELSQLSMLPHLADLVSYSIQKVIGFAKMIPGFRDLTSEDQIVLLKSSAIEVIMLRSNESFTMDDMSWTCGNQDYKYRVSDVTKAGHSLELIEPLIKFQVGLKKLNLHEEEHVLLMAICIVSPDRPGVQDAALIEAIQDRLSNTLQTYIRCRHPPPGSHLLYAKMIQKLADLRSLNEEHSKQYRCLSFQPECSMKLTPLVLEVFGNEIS
#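 Signal is fluorescence polarization, reporting how far test compounds block the interaction of VDR with the SRC2-3 coregulator peptide after a 2 h room-temperature incubation.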
# * hit, by the source's call; ? = inconclusive; & = joins results of further samples. On the % scale 0 is the no-effect control and ±100 the full control effect; potency means the concentration at half of the fitted maximal effect. Not all compounds are listed; rates above refer to the full screens.
SMILES,VDR inh
O=C1c2oc3ccc(Cl)cc3c(=O)c2C(c2ccccn2)N1CCCN1CCOCC1 (centres undefined),?
NS(=O)(=O)c1ccc(NC(=O)COC(=O)CNC(=O)C23CC4CC(CC(C4)C2)C3)cc1,1.0%
CC(=O)c1c(C)nc(C)nc1NC(=O)Cc1ccccc1,-13.4%
O=C(NC(=S)Nc1nc2ccc(F)cc2s1)c1ccco1,18.8%
CCCn1c(N)c(C(=O)CN(C)CC(=O)Nc2ccc(C)cc2)c(=O)[nH]c1=O,4.1%
CN1C(=O)S/C(=C/c2cccnc2)C1=O,-17.4%
CN(C)S(=O)(=O)c1ccc(C(=O)Nc2ccccc2C(=O)NCCCN2CCOCC2)cc1,10.5%
COc1ccc(CNC(=O)CN(c2cc(C(F)(F)F)ccc2Cl)S(C)(=O)=O)cc1,-0.9%
CCOc1ccc(C(=O)NCCC(=O)N2CCC3(CC2)NCCc2[nH]cnc23)cc1,-7.9%
Cc1ccc2nc(N(CCCN(C)C)C(=O)c3cc(-c4cccs4)nc4ccccc34)sc2c1,9.3%
COc1ccc(N2CC(NC(=O)Nc3ccccc3)CC2=O)cc1 (centres undefined),-3.2%
O=C(COc1ccccc1Cl)N1CCN(c2ncccn2)CC1,3.8%
O=C(Nc1ccccc1N1CCOCC1)c1ccncc1,6.7%
O=C(Nc1ccc(Cl)cc1F)c1ccc(COc2c(F)c(F)c(F)c(F)c2F)o1,-11.5%
CSCCC(NC(=O)COc1ccccc1)C(=O)N1CCN(c2cccc(C(F)(F)F)c2)CC1 (centres undefined),7.8%
CN(CCc1ccccn1)C(=O)CCC1CCCN(C(=O)c2ccc3c(c2)OCCO3)C1 (centres undefined),11.9%
CCC(=O)C1CCCN(C(=O)CCc2nnc(-c3ccc4c(c3)OCO4)o2)C1 (centres undefined),-19.8%
Cc1ccc(NC(=O)c2ccco2)nc1,-12.6%
O=Cc1ccnc(-c2ccc(OC(=O)c3ccco3)cc2)n1,-4.2%
O=C(COC(=O)CCCc1nc2ccccc2s1)NC(=O)NCc1ccco1,0.6%
Cc1ccc(NC(=S)NCc2ccc(Cl)cc2)c(OC(F)F)c1,-13.4%
CC1CCCCN1C(=O)c1ccccc1NC(=O)c1ccco1 (centres undefined),-2.3%
Cc1ccc(CSCCNC(=O)CN(c2cccc([N+](=O)[O-])c2)S(C)(=O)=O)cc1,-2.7%
Cc1nc2ccccc2c(=O)n1NC(=O)c1ccccc1Br,8.6%
CCc1ccc(OCCOCC(O)CNC(C)(C)C)cc1 (centres undefined),-32.0%

# Two records picked at random from those above:
SMILES,VDR inh
O=Cc1ccnc(-c2ccc(OC(=O)c3ccco3)cc2)n1,-4.2%
CC1CCCCN1C(=O)c1ccccc1NC(=O)c1ccco1 (centres undefined),-2.3%

# Some of the entries so far, with the structure last.
VDR inh	Molecule
-3.2%	COc1ccc(N2CC(NC(=O)Nc3ccccc3)CC2=O)cc1 (centres undefined)
3.8%	O=C(COc1ccccc1Cl)N1CCN(c2ncccn2)CC1
6.7%	O=C(Nc1ccccc1N1CCOCC1)c1ccncc1
-11.5%	O=C(Nc1ccc(Cl)cc1F)c1ccc(COc2c(F)c(F)c(F)c(F)c2F)o1

# Following part
SMILES,VDR inh
CCOC(=O)C(=O)NNc1ccccc1OC,0.7%
CN(CC(=O)Nc1ccc2c(c1)CCC2)CC(=O)Nc1ccccc1Br,?
CCCn1c(SCC(=O)c2cc(C)n(C3CC3)c2C)n[nH]c1=O,2.1%
C/C(N)=C(/C#N)C(=O)COC(=O)[C@@H](NC(=O)c1ccccc1Cl)C(C)C,3.5%
N[C@H](Cc1ccc(O)cc1)C(=O)O,8.3%&7.5%
O=C(COc1coc(CN2CCN(c3ccccc3F)CC2)cc1=O)NC1CCCC1,0.9%
CC(=O)[C@@H]1[C@@H](C)N(Cc2ccccc2)C(=O)N[C@H]1c1cccc(C(F)(F)F)c1,-11.3%
CN(Cc1cccs1)C(=O)Cc1c[nH]c2ccccc12,-12.5%
Cc1cccc(NC(=S)N(CCN(C)C)Cc2cc3cc(C)ccc3[nH]c2=O)c1,-16.7%
C/C=C(\C)c1nnc(NC(=O)c2ccco2)s1,1.9%
Cc1ccc(S(=O)(=O)N2CCC[C@H]2C(=O)NC2CCCCC2)cc1,-5.2%
N/C(=N\OC(=O)C12CC3CC(CC(C3)C1)C2)c1ccccc1,2.8%
CC1(C(=O)O)Oc2cccnc2NC1=O (centres undefined),-7.1%
CN1CCN(CC(O)COc2ccc(C(=O)O)cc2)CC1 (centres undefined),-10.3%
COc1cc(C2=NOC(C(=O)NCc3cccs3)C2)cc(OC)c1OC (centres undefined),-3.2%
CCOc1ccc(C2NC(=O)Cc3cc(OC)c(OC)cc32)cc1 (centres undefined),0.0%
CCCCC1=CC2=C(c3ccco3)C(=O)C(C)(OC(=O)c3ccc(OC)cc3)C(=O)C2=CN1CC1CC1 (centres undefined),-11.2%
CCNc1ccc(Br)cc(C(=O)/C=C/c2ccc(Cl)cc2)c1=O,?
COc1ccc(OC)c(N2CC(O)(c3cccs3)[N+]3=C2SCCC3)c1 (centres undefined),-21.5%
CN(CC(=O)Nc1ccc(Cl)c(C(F)(F)F)c1)C(=O)CCC(=O)c1ccccc1,11.4%
C=CC[N+]1(CC=C)CCOCC1,6.1%
CCCCC(=O)Oc1ccccc1C1SCc2cc(C)c(C)cc2CS1,-0.6%
CN(C)S(=O)(=O)c1cccc(NC(=O)CSc2nc3c(cc2C#N)C(=O)CC(C)(C)C3)c1,-9.4%
O=C(Nc1cccnc1Cl)c1ccc2c(Cl)c3c(nc2c1)CCC3,-5.8%
O=C(/C=C/c1nc2ccccc2s1)N1CCCCCC1,-9.0%

# (continued)
SMILES,VDR inh
CN(C(=O)OC(C)(C)C)[C@H](Cc1ccccc1)C(=O)N[C@H]1CCCCNC1=O,1.1%
O=C(CCCCn1c(=O)c2ccccc2n(Cc2ccccc2F)c1=O)NCc1ccc2c(c1)OCO2,7.6%
CCN(CC)CCCNC(=O)c1cn(CC)c2cc(N3CCN(C(=O)c4ccco4)CC3)c(F)cc2c1=O,-7.0%
Cc1nc(-c2ccc(S(=O)(=O)N3CCCN(CCc4ccccc4)CC3)s2)cs1,10.4%
CC(/C=C/C=C(\C)C(=O)O[C@@H]1O[C@H](CO[C@@H]2O[C@H](CO)[C@@H](O)[C@H](O)[C@H]2O)[C@@H](O)[C@H](O)[C@H]1O)=C\C=C\C=C(C)\C=C\C=C(/C)C(=O)O[C@@H]1O[C@H](CO[C@@H]2O[C@H](CO)[C@@H](O)[C@H](O)[C@H]2O)[C@@H](O)[C@H](O)[C@H]1O,11.7%
C=CCNCCOc1ccc(C(C)(C)c2ccccc2)cc1,2.6%
Cc1ccccc1CCNC(=O)c1ccc2c(c1)nc1n2CCCCC1,3.8%
NC(=O)c1ccc(Nc2ccc3c(c2)CCC3)c([N+](=O)[O-])c1,21.9%
COc1cc(CCC(=O)N2CCN(S(=O)(=O)c3ccc(C)c(C)c3)CC2)cc(OC)c1OC,-11.4%
CCn1nc(C)c(/C=N/NC(=O)Cn2nnc(N)n2)c1C,-16.5%
Cc1ccc(S(=O)(=O)c2c(COC(=O)c3ccc(Cl)cc3)c(-c3ccccc3)nn2C)cc1,-8.5%
COc1ccc(S(=O)(=O)N(C)CC(=O)NCC2CCCO2)cc1OC (centres undefined),9.1%
CCOc1cc(CNCc2cccnc2)cc(Br)c1OCC(N)=O,-9.7%
CCCn1cc(S(=O)(=O)c2ccc(Cl)cc2)c(=O)c2cc(OC)ccc21,?
COc1ccccc1/C=C/C(=O)NC1CC2CCC1C2 (centres undefined),-9.4%
CC(=O)c1cccc(NC(=O)Nc2cc3c(cc2N2CCCC2)n(C)c(=O)n3C)c1,1.6%
Fc1ccc(Br)cc1/C=N/n1cnnc1,-8.8%
Nc1nc(SCc2ccccc2Cl)ns1,-5.6%
NS(=O)(=O)c1cccc(NC(=O)CSc2n[nH]c(-c3cccs3)n2)c1,-6.1%
CN(C)c1ccc(Nc2c3c4c(cccc4n(C)c2=O)C(=O)c2ccccc2-3)cc1,-8.7%
O=C(c1cc(COc2ccc(F)cc2F)on1)N1C[C@H]2CC[C@H]1C2,10.4%
CC(C)(C)c1ccc(OCCCNC2CCCC2)cc1,4.3%
CCOC(=O)c1ccccc1NC(=O)Nc1ccc(OC)c(OC)c1,-2.1%
O=C(NCCc1ccccc1)C(=O)NCC1OCCCN1S(=O)(=O)c1cccs1 (centres undefined),-15.7%
CCOc1ccc(NC(=O)C2CCN(C(=O)C3CC(=O)N(c4ccc(C)cc4)C3)CC2)cc1 (centres undefined),1.9%

# (listing goes on)
SMILES,VDR inh
O=C(C1CC1)N1CCc2cc(Br)cc(S(=O)(=O)N3CCN(c4ccccc4)CC3)c21,-24.8%
O=C(O)CSCCn1cccn1,1.6%
CCCCCCN(C(=O)CCCCCN1C(=O)NC(c2ccc([N+](=O)[O-])cc2)C(C(=O)OCc2ccccc2)=C1C)C(C(=O)NCCCC)C1CCCCC1 (centres undefined),-1.9%
CC(=O)Nc1ccc(S(=O)(=O)NC(C(=O)O)C(C)C)cc1 (centres undefined),-7.5%
c1ccc(Cn2nc(-c3ccccc3)nc2-c2ccccc2)cc1,0.2%
CC(C)N1C/C(=C/c2cccnc2)C(=O)/C(=C/c2cccnc2)C1,?
CCOC(=O)c1cccc(NC(=O)c2cc(S(=O)(=O)N3CCCC(C)C3)cn2C)c1 (centres undefined),8.6%
Cc1ccc(NC(=O)c2cc3ccccc3oc2=N)cc1,-11.4%
O=C(CNC(=O)c1cccc(Cl)c1)N/N=C/C=C/c1ccccc1,-13.2%
O=C(CCC(=O)Nc1ccc(F)cc1)N/N=C/c1cccs1,-1.7%
COc1cc(CN2CCC(CO)(Cc3cccc(C(F)(F)F)c3)CC2)ccc1F,-13.4%
O=C(NCCCN1CCCC1=O)C1CCC(CNS(=O)(=O)c2ccc(Cl)cc2)CC1 (centres undefined),3.5%
CCc1cccc(C)c1NC(=O)CCCSc1nc2ccccc2s1,14.2%
Cc1cc(NC(=O)c2cc(-c3ccccc3)on2)no1,-2.7%
COc1ccc(-c2cc(C(F)(F)F)nc(SCC(=O)NCc3cccs3)n2)cc1OC,-21.4%
COc1ccc(-c2ccc3c(c2)C2CC3CCN2C(=O)C(C)(C)C)cc1 (centres undefined),-6.1%
NS(=O)(=O)c1ccc(CNS(=O)(=O)c2ccc3ccccc3c2)cc1,15.2%
Cc1ncc(COCc2ccccc2)c(CO)c1OCc1ccccc1,-3.7%
COc1ccc(N=C2C(=O)Nc3ccccc32)cc1,10.9%
O=C(NCC1CCCO1)c1cccc(N2CCCC2=O)c1 (centres undefined),0.0%
Cc1cc(C)n(-c2nc3ccccc3nc2Nc2ccc(C(C)C)cc2)n1,3.1%
O=C(c1cccs1)N1CCN(C2CCN(Cc3ccccc3)CC2)CC1,14.4%
CC(=O)C1=C(O)C(=O)N(CCC(=O)O)C1c1cccc(F)c1 (centres undefined),12.6%
O=C(Cc1ccc(F)cc1)N1CCOCC1,-1.8%
O=C(CSCc1ccc(F)cc1)Nc1ccc(N2CCOCC2)cc1N1CCOCC1,11.8%

# The results go on.
SMILES,VDR inh
O=C(CCC(=O)NC12CC3CC(CC(C3)C1)C2)NC1CCCCC1,-7.3%
O=C(NCCCn1ccnc1)C(=O)Nc1ccccc1,0.2%
O=C(Nc1ccc2c(c1)OCO2)c1cnc2n(c1=O)CCS2,-7.6%
Cc1cccc(C)c1NC(=S)N1CCCCCC1,-1.8%
C=CCn1c(SCC(=O)Nc2nc3ccccc3s2)nnc1-c1ccccc1O,13.6%
COc1ccc(-c2[nH]ncc2/C=N\NC(=O)c2ccc(Br)o2)cc1OC,-27.4%
CN1CCC(=O)N([C@H](COc2ccccc2)Cc2ccccc2)CC1,10.1%
O=c1[nH]c(SCc2n[nH]c(=S)n2-c2ccccc2)nc2sc3c(c12)CCC3,8.1%
C(=C\n1nnc2ccccc21)/c1ccc[nH]1,-5.0%
COc1ccc(S(=O)(=O)Nc2ccc(-n3cnnn3)cc2)cc1[N+](=O)[O-],7.3%
OCCC1CN(Cc2cccn2-c2ccccn2)CCN1C1CCCC1 (centres undefined),-1.4%
Cc1cc(C)c(NC(=S)NC(NC(=O)c2ccccc2)C(Cl)(Cl)Cl)c(C)c1 (centres undefined),-3.0%
O=S1(=O)NC[C@]23C[C@H](c4ccc(F)cc4)[C@@H](C[C@@H]21)O3,-16.5%
CCn1c(N)c(C(=O)NCc2ccc3c(c2)OCO3)sc1=S,-4.5%
O=S(=O)(/N=C(/Nc1ccccc1F)c1ccccc1)c1ccccc1,6.4%
C=CCNC(=S)N/N=C/c1ccc(C(F)(F)F)cc1,-12.4%
CC(C)CNc1ncnc2[nH]ncc12,-10.7%
COc1ccc(C(=O)Nc2ccc(Nc3ccccc3)cc2)cc1OC,-26.3%
Cn1c(=O)c2c(nc(N3CCCCC3)n2CCSc2nc3ccccc3s2)n(C)c1=O,-27.6%
C=CCNC(=O)c1cc(-c2ccncc2)nc2c(C)cc(C)cc12,2.1%
COc1ccc(C2CCCN2C(=S)Nc2ccc(C)cc2Cl)cc1OC (centres undefined),-4.2%
COc1ccc(OC)c(NC(=O)COC(=O)CCCN=C2NS(=O)(=O)c3ccccc32)c1,14.1%
Cc1cc(NC(=O)COC(=O)[C@@H](NS(=O)(=O)c2ccccc2)C(C)C)no1,-0.6%
O=c1[nH]cnc2[nH]ncc12,9.9%&3.8%&-2.9%&1.2%
CC(C)c1ccc(NC(=O)[C@H](NC(=O)[C@@H]2Cc3ccccc3CN2)c2ccccc2)cc1,-13.2%

# A section from further up:
SMILES,VDR inh
COc1ccc(-c2[nH]ncc2/C=N\NC(=O)c2ccc(Br)o2)cc1OC,-27.4%
CN1CCC(=O)N([C@H](COc2ccccc2)Cc2ccccc2)CC1,10.1%
O=c1[nH]c(SCc2n[nH]c(=S)n2-c2ccccc2)nc2sc3c(c12)CCC3,8.1%
C(=C\n1nnc2ccccc21)/c1ccc[nH]1,-5.0%
COc1ccc(S(=O)(=O)Nc2ccc(-n3cnnn3)cc2)cc1[N+](=O)[O-],7.3%
OCCC1CN(Cc2cccn2-c2ccccn2)CCN1C1CCCC1 (centres undefined),-1.4%
Cc1cc(C)c(NC(=S)NC(NC(=O)c2ccccc2)C(Cl)(Cl)Cl)c(C)c1 (centres undefined),-3.0%
